ClpP mod – qHTS Assay for Activators of ClpP | ATP-dependent Clp protease proteolytic subunit (Bacillus subtilis (strain 168)), P80244 | purified B. subtilis ClpP, FRET peptide cleavage, 20 min | 340,000 tested, 1.9% active | Potency, µM (doses to about 57.5 µM), without a hit: at the top dose activity change, negative = active; active = well fitted falling curve with a large enough effect; inconclusive = small, poorly fitted or top-dose-only effect; inactive = no such curve, though single readings can be large or run the other way; also: potency is read from the fitted curve at half-maximal effect; the source files actives as falling curves though it sought activators and does not explain the sign; nearly all actives have a fitted effect of over 65% in size; many hits overshoot -100%
Target sequence (P80244 whole entry, looked up): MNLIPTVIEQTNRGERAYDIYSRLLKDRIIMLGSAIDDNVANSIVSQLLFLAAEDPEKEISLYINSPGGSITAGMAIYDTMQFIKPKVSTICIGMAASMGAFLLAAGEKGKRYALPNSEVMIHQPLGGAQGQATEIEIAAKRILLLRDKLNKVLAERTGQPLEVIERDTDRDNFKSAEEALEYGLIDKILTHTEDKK
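Buffer: 100 mM Tris/HCl pH8, 100 mM KCl, 0.05% low protease BSA, 2.5% glycerol, 0.01% Tween-20. ClpP 10 microg/mL final; 20 min RT; delta FRET normalized to ADEP and DMSO controls.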
Menin MLL FP FL – inhibitors of human menin-MLL interaction, wild-type MLL peptide. FP activity change, % at 61.4 µM. 290,000 tested, under 10 active. Fluorescence polarization, fluorescein-MLL peptide displacement from menin. AID 1766; inconclusive = falling polarisation curve, or a change in total fluorescence; inactive = total fluorescence flat and polarisation flat or rising; no compound was filed as active; the % refers to the polarisation; negative = inhibition;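 also: % of control where 0% means no effect; inhibitors lower the polarisation; unlabelled MLL peptide was the positive control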
D2 ag – human D2 receptor agonism in beta-arrestin assay | DiscoveRx PathHunter D2 beta-arrestin, luminescence, 90 min; 100% = 57 uM dopamine signal | 360,000 tested, 0.084% active | activation, % (concentration not given with the values) | AID 624465 | P14416; in the data active = activation above about 40%; inconclusive = about 15% to 40%; inactive = below about 15%; also: compound concentration not given in the record; the text of the record calls up to 30% inactive
Target sequence (P14416 whole entry, looked up): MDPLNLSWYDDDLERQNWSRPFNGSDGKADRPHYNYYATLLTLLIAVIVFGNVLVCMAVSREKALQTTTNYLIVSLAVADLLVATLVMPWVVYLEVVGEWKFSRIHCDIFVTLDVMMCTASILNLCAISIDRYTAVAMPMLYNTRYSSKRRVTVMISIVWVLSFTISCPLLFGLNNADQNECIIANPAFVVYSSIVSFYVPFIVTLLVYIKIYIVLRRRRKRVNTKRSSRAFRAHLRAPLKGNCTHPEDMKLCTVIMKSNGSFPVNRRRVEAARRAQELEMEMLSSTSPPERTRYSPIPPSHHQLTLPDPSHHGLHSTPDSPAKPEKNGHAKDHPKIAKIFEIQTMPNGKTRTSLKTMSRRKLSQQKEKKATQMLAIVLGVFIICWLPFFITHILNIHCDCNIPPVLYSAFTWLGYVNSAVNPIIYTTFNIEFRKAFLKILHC
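DiscoveRx PathHunter D2 beta-arrestin cells (2,100/well) attached overnight, then compound-stimulated 90 min at 37 C in HBSS/10 mM HEPES/0.1% Tween-20 buffer; beta-galactosidase complementation read by luminescence after 1 h at ambient temperature. Dopamine 57 uM final (EC100) as control.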
PINK1 expr mod – changes PINK1 expression; PINK1 immunofluorescence, high-content cytometry, 24 h; Potency, µM (top dose mostly 76.6 µM), for inactives: top-dose activation (PINK1 increase), actives largely listed as activators; 410,000 tested, 0.2% active; AID 624263; active = well fitted activation curve with a large enough effect; inconclusive = small, poorly fitted or top-dose-only effect; inactive = flat fitted curve, though single readings scatter; cell line not stated here;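 also: potency is read from the fitted curve at half-maximal effect; % of control where 0% means no effect; nearly all actives have a fitted effect of over 65% in size; a mitochondrial uncoupler was the plate control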
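Stable cell line, 250 cells/well, 12 h attachment; compounds pinned at 5 concentrations, 24 h; CCCP control. Fixed with nuclear dye, primary antibodies 12 h at 10 degrees C, secondary plus cell stain; laser-scanning cytometer read.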
Sfp PPTase inh – blocks B. subtilis Sfp PPTase activity; Q9F4F7; Biochemical Sfp PPTase activity, qHTS; Potency, µM, for the others: max response, negative = inhibition, usual class: inhibitors; 310,000 tested, 3.5% active; AID 1490; active = well fitted inhibition curve with a large enough effect; inconclusive = small, poorly fitted or top-dose-only effect, or another doubt; inactive = no such curve, though single readings can be large or run the other way;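 also: the enzyme is Sfp with the accession as filed and its product quenches rhodamine fluorescence; potency is read from the fitted curve at half-maximal effect; 0% = enzyme reaction without inhibitor and -100% = no enzyme wells; top concentration of the series not given in the record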
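Step 1, compound plus 15 nM Sfp-PPTase, 15 min, room temperature. Step 2, add rhodamine-CoA (5 uM) and BHQ-2-YbbR (12.5 uM). Step 3, read 525/598 nm fluorescence at 0 and 30 min.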
gsp antagonist – antagonizes gsp, the McCune-Albright syndrome mutation | gsp-mutant cells, cAMP HTRF, 30 min; control for the full effect not named in the record | AID 624288 | Potency, µM (highest dose often 76.9 µM), inactives show at the highest dose activity change, negative = inhibition, usual class: inhibitors | 340,000 tested, 0.4% active; active = falling curve of any shape with a large fitted effect; inconclusive = falling curve, mostly with a smaller effect; inactive = flat or rising curve; cell line not stated here;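 also: intracellular cAMP measured with PDE inhibitor Ro 20-1724 present during compound exposure; potency is read from the fitted curve at half-maximal effect; % is scaled to controls: 0 for no effect and ±100 for the full control effect; nearly all actives have a fitted effect of over 65% in size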
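G418-selected cells were plated in DMEM/10% FBS for 16-24 h at 37C, then treated with compounds plus the PDE inhibitor […] (300 uM solution added) for 30 min at 37C. Intracellular cAMP was measured by HTRF after 30 min lysis at room temperature.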
gsp agonist – activates gsp, the McCune-Albright syndrome mutation | gsp mutant cells, cAMP HTRF, 30 min; control for the full effect not named in the record | Potency, µM (top dose mostly 76.9 µM), for inactives: at the top dose activation (cAMP increase), most hits filed as activators | 340,000 tested, 0.13% active | AID 624287; active = well fitted activation curve with a large enough effect; inconclusive = small, poorly fitted or top-dose-only effect, or another doubt; inactive = no such curve, though single readings can be large or run the other way; cell line not stated here;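 also: phosphodiesterase inhibitor Ro 20-1724 added with compounds to block cAMP breakdown; potency is read from the fitted curve at half-maximal effect; nearly all actives have a fitted effect of over 60% in size; about a fifth of the inactives were tested at one dose only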
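Cells in DMEM/10% FBS with G418 were pretreated with compounds in DMSO plus […] (300 uM stock) for 30 min at 37C. cAMP was measured by HTRF (cAMP-d2 plus anti-cAMP antibody-K) after 30 min at room temperature.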
An asterisk follows results filed as active; ? = inconclusive; nt = not tested or not shown; & = joins results of further samples; [ ] = remark or other dose.

SMILES | ClpP mod | Menin MLL FP FL | D2 ag | PINK1 expr mod | Sfp PPTase inh | gsp antagonist | gsp agonist
CC(C)n1cc(C#N)c(N)n1 | -3.0% | nt | 1.5 | -3.0% | nt | 8% | -2%
CCOc1cc(C2C(C(C)=O)=C(O)C(=O)N2CCc2c[nH]c3ccccc23)ccc1O (stereo not drawn) | nt | 0.6 | 1.4 | 0.5% | 4% | 10% | ?
CCOC(=O)C1CCCN(Cc2ccccc2F)C1 (stereo not drawn) | -2.5% | 1.0 | -1.4 | 0.4%[38.3 µM] | ? | 11% | -48%[inhibitor]
COc1cc(C(=O)OCC(=O)N2CCCC2)cc(OC)c1OC | -4.1% | -1.1 | -3.8 | -1.8% | 14% | -6% | ?
O=C(CSc1nnc(SCc2ccc(Cl)cc2)s1)N/N=C/c1ccccc1Cl | 1.3% | -1.4 | 0.3 | 0.7% | 7% | -4% | -19%
c1coc(CNC2C3CC4CC(C3)CC2C4)c1 (stereo not drawn) | -1.5% | 7.9 | -1.8 | -1.5%[38.3 µM] | 10% | 13% | 8%
COC(=O)CCCCC1SCC(NC(=O)c2ccccc2)C1=O (stereo not drawn) | 1.8% | -1.8 | -4.1 | 2.5% | 3% | 2% | -36%[inhibitor]
CCCn1cnc2cc(NCc3ccccn3)ccc21 | ? | -1.9 | -3.8 | 0.5% | -4% | -1% | ?
CCN1CCN(c2sc(S(C)(=O)=O)nc2S(=O)(=O)c2ccc(C)cc2)CC1 | 1.1% | nt | -2.4 | -1.6% | 12% | 7% | ?
CC(C(=O)O)c1cccc(Oc2ccccc2)c1 (stereo not drawn) | -0.2% | 2.0 | -3.1 | 0.7% | 2% | -9% | nt
Cc1c(Cl)cccc1NC(=O)C1Cc2ccccc2CN1C(=O)c1ccccc1 (stereo not drawn) | 2.3% | 0.6 | -2.4 | 1.5% | 5% | 18% | -17%
CCS(=O)(=O)Nc1cccc(C2=NN(S(=O)(=O)c3ccc(C)cc3)C(c3cccs3)C2)c1 (stereo not drawn) | -3.3% | 20 | -3.0 | 8.9% | -4% | -9% | ?
CC(N=C1NS(=O)(=O)c2ccccc21)C(=O)NCCCc1ccccc1 (stereo not drawn) | 0.7% | 6.7 | 2.8 | -1.9% | 9% | 7% | 4%[15.4 µM]
O=C(NCc1ccc2c(c1)OCO2)NC1CCCCC1 | nt | ? | 5.1 | 6.8% | 5% | 3% | 16%
O=C(COc1cccc2ccccc12)N1CCN(c2ccccc2)CC1 | -6.1% | 7.1 | -9.6 | -0.9% | ? | 0% | -30%
Cc1cccc(OCC(=O)Nc2sc3c(c2C#N)CCC3)c1 | 1.7% | 0.4 | -2.8 | 1.3%[38.3 µM] | 12% | -8% | ?
Cc1nnc(NC(=O)C2CCCN(c3ncccn3)C2)s1 (stereo not drawn) | -21% | -1.7 | -3.6 | -3.0%[38.3 µM] | 17% | 8% | 23%
CC(=O)c1ccc(NC(=O)CSc2nnc(Cn3c(=O)sc4ccccc43)n2C)cc1 | 2.2% | 3.7 | -2.9 | -4.0% | 8% | -2% | -32%[inhibitor]
O=C(O)C1C2CCC(O2)C1C(=O)NCc1ccncc1 (stereo not drawn) | 0.0% | 0.5 | -2.0 | -1.6% | ? | 15% | -1%
O=C(O)c1cccc(NC(=O)c2cn(-c3ccccc3)nc2-c2ccc(F)cc2)c1 | -2.3% | 4.6 | -2.8 | 0.0% | 7% | ? | -2%[15.4 µM]
COc1cc2ccccc2ccc1=NO | nt | nt | -0.3 | 8.4% | nt | 9% | 8%
Cc1ccc(Nc2nc3c([nH]2)c(=O)n(C)c(=O)n3C)cc1 | -2.1% | 3.7 | 1.9 | -2.9%[38.3 µM] | -11% | -5% | ?
N#Cc1ccc(COn2nnc3ccccc32)cc1 | nt | -2.6 | -2.2 | 0.6% | 22% | -4% | 5%[15.4 µM]
COc1ccccc1CC(=O)N(CCC1=CCCCC1)c1c(N)n(Cc2ccccc2)c(=O)[nH]c1=O | -0.7% | nt | -5.3 | 2.8% | nt | -9% | -16%[15.4 µM]
Cc1cccc(Nc2cc(=O)n(C)c(=O)[nH]2)c1 | nt | -3.5 | 1.7 | -0.4% | 12% | 14% | -47%[inhibitor]
CCOc1ccc(S(=O)(=O)N2CCCCC2)cc1NC(=O)Cc1ccsc1 | 3.8% | nt | 9.9 | 6.6% | nt | -13% | -11%
COc1ccc(C(CC(=O)N2CCCC2)c2c(O)cc(OC)cc2OC)cc1 (stereo not drawn) | -7.8% | 1.7&4.9 | -0.9 | 2.4% | 15%&5% | -14% | nt
Clc1ccccc1CSc1nnc(-c2ccncc2)o1 | -0.8% | 2.4 | -1.3 | -0.9% | 4% | 4% | 2%
CCC(C)NC(=O)C1CCC(=O)N(c2cc(OC)c(OC)c(OC)c2)C1c1ccc(OC)cc1 (stereo not drawn) | 0.3% | 1.4 | -2.4 | 1.4% | 14% | 9% | -36%[inhibitor]
NC(=O)c1ccc(NC(=O)c2ccc(COc3ccc(F)cc3)o2)cc1 | 3.7% | nt | -4.3 | 0.9% | nt | 23% | 25%
COc1ccccc1NC(=S)N(Cc1ccc(C)cc1)Cc1ccccn1 | -1.2% | 6.6 | -6.9 | 0.3% | 45µM* | -7% | -4%
O=C(CCC(=O)Nc1ccc(Br)cc1)N/N=C/c1ccc(O)cc1 | -11% | 5.9 | -4.3 | 3.2% | 10% | -5% | 17%
CCC(C)/C(C)=N/NC(=O)c1ccc(COc2ccc(Cl)c(C)c2)cc1 (stereo not drawn) | 1.4% | 4.7 | 3.8 | 12% | 17% | 6% | -51%[inhibitor]
Cc1ccccc1C(=O)NC(=S)NC1CCS(=O)(=O)C1 (stereo not drawn) | 0.3% | nt | -3.6 | -0.2% | 13% | 15% | -48%[inhibitor]
CC1CCN(C(=O)COC(=O)CNC(=O)c2ccccc2F)CC1 | 0.2% | nt | -1.7 | -1.6% | nt | -13% | -25%[15.4 µM]
CC1CCCC(C)N1C(=O)COC(=O)c1n[nH]c(=O)c2ccccc12 (stereo not drawn) | -1.0% | nt | 0.3 | 1.6% | nt | 11% | -17%
Cc1c(CCOC(=O)c2ccc([N+](=O)[O-])cc2)sc[n+]1CC(=O)c1ccccc1 | nt | -9.3 | -0.7 | 3.1% | -6% | 0% | -3%
CCCc1nnc(NC(=O)CCC(=O)NC2CCCC2)s1 | 1.0% | nt | -6.8 | -0.3% | 12% | 0% | 28%
O=C(c1ccc(S(=O)(=O)Nc2ccccc2Cl)cc1)N1CCCC1 | -0.4% | nt | 0.0 | 0.8% | nt | 0% | ?
CCOc1ncccc1C(=O)Nc1ccc(Cl)c(S(=O)(=O)N2CCCC2)c1 | -3.1% | 4.4 | -4.4 | 0.1% | 6% | 1% | -14%[15.4 µM]
Cn1cnc([N+](=O)[O-])c1SCCO | -1.2% | 1.7 | -2.4 | 0.0% | -25% | 10% | 13%[15.4 µM]
Cc1cc(NC(=O)c2ccc(Cl)c(S(=O)(=O)N3CCOCC3)c2)no1 | nt | 0.0 | 4.6 | -2.2% | 11% | 6% | 12%
Cn1c(=O)c2c(nc(CN3CCN(C(=O)c4ccco4)CC3)n2CC(=O)C(C)(C)C)n(C)c1=O | nt | 4.1 | 3.6 | 1.9% | 10% | -14% | 13%
CC(NC(=O)c1ccco1)C1COc2ccccc2O1 (stereo not drawn) | -4.0% | -0.3 | -4.7 | -3.5% | 5% | 2% | ?
Cc1ccccc1NC(=O)CCN1CCCC1 | 1.2% | 0.0 | 2.8 | -0.4% | 15% | 11% | -15%
CCn1cc(C2N3CC4(C)CN2CC(C)(C3)C4=O)c2ccccc21 (stereo not drawn) | -1.6% | 1.2 | -0.8 | 0.6% | 10% | 1% | -7%
COc1ccc(/C=C/C(=O)NC(CCSC)C(=O)O)cc1 (stereo not drawn) | nt | -8.2 | 1.9 | 0.0% | 5% | nt | -12%[15.4 µM]
CSCCC(NC(C)=O)C(=O)Oc1ccc2c3c(c(=O)oc2c1)CCCC3 (stereo not drawn) | ? | 0.2 | -2.8 | 0.1%[38.3 µM] | 10% | 22% | ?
COc1ccc(NC(=O)CCNC(C)=O)cc1NS(=O)(=O)c1ccc(F)cc1 | 0.2% | 9.0 | -1.7 | 1.0% | 1% | 1% | -13%
CSCSC1=C(C#N)C(c2ccccc2Cl)C(C(C)=O)=C(C)N1 (stereo not drawn) | -4.9% | 0.8 | -0.4 | 1.9%[38.3 µM] | ? | -4% | 0%
Other entries
SMILES | ClpP mod | Menin MLL FP FL | D2 ag | PINK1 expr mod | Sfp PPTase inh | gsp antagonist | gsp agonist
COc1ccc(-c2cc(C(=O)Nc3cc(S(=O)(=O)N4CCOCC4)ccc3N3CCOCC3)c3ccccc3n2)cc1 | ? | 6.1 | 13 | 4.1% | 20% | -22% | 0%
Cc1cc(NC(=O)c2ccc(F)cc2)no1 | -0.6% | 17 | -1.4 | -0.7% | 15% | 7% | -26%
Cc1ccc(S(=O)(=O)NCC(=O)OCC(=O)N(CCC#N)c2ccccc2)cc1 | 1.5% | nt | -4.2 | -2.6% | nt | -23% | -51%[inhibitor]
O=C(CSc1nnc2c(n1)[nH]c1ccc(S(=O)(=O)N3CCOCC3)cc12)Nc1ccc(F)c(F)c1 | nt | 1.4 | -0.2 | 9.0% | ? | ? | 24%
COCCn1c(SCC(=O)Nc2ccc(S(N)(=O)=O)cc2)nc2ccccc21 | -2.0% | 0.8 | 2.0 | 1.1% | -6% | -9% | -2%
CC(=O)Nc1cccc(OCC(=O)Nc2ccc(F)cc2)c1 | 0.4% | -3.0 | -2.6 | -0.1% | 14% | 0% | 3%[15.4 µM]
COP(=O)(OC)c1nc(-c2ccc(C)cc2)oc1N1CCCCC1 | 4.4% | 3.3 | 1.5 | 0.7% | -14% | -5% | 4%
COCCNc1ncnc2c1cnn2Cc1ccccc1Cl | -4.2% | 3.1 | 1.0 | 9.7% | 11% | 2% | -49%[inhibitor]

Screening results: PubChem, National Center for Advancing Translational Sciences (NCATS)
